p47phox inh = inhibitors of human p47phox binding | inhibition, % at 24.7 µM | p47phox/p22phox peptide binding, fluorescence polarization, 2 h | P14598 | hit rate 0.53% among 220,000;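 active means inhibition above about 30%, limit read from the data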;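 further: 0% = p47phox with labelled peptide and 100% = labelled peptide alone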
EBV gp42 block = blocks Epstein-Barr virus glycoprotein 42 binding; Q1HVG2; Fluorescence polarization binding assay, mP read-out; inhibition, % (tested at 21.74 µM); hit rate 0.42% among 220,000; AID 1085; in the data active means inhibition above about 50%
Target sequence (Q1HVG2 whole entry, looked up): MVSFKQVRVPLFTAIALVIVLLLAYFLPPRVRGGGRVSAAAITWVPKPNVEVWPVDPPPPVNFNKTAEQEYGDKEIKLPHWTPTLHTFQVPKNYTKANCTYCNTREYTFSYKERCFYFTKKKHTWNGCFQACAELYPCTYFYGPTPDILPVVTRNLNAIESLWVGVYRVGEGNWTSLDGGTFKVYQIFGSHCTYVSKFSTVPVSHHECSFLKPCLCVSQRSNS
p97 ATPase inh = human p97 ATPase inhibition; P55072; recombinant p97 ATPase, Kinase-Glo ATP luminescence, 3 h; inhibition, % at 8 µM; hit rate 0.42% among 220,000; AID 1481; in the data active means inhibition above about 15%;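 further: 0% = DMSO vehicle and 100% = wells lacking enzyme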
Target sequence (P55072 whole entry, looked up): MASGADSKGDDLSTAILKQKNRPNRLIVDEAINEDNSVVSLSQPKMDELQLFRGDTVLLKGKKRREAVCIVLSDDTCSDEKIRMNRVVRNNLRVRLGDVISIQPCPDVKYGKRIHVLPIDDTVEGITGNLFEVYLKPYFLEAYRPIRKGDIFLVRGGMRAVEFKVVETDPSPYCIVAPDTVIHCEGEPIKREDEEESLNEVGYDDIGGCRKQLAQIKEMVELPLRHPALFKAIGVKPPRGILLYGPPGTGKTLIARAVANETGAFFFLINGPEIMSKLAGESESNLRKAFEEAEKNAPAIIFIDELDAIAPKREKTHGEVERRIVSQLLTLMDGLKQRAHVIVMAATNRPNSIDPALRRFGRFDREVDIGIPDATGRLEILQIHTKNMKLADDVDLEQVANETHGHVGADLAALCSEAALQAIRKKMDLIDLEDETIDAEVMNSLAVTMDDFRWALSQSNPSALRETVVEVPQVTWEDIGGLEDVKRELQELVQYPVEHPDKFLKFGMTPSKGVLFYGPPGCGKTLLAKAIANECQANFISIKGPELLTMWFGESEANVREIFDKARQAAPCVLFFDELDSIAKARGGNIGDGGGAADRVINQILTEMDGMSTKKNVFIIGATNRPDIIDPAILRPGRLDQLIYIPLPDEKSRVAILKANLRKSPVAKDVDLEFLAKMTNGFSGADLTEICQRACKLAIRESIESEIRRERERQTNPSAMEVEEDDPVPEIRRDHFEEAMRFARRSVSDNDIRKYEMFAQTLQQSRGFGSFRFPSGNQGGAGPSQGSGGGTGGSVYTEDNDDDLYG
Furin inh = blocks human furin protease activity | purified furin, fluorogenic substrate cleavage | AID 463115 | hit rate 0.061% among 220,000 | P09958 | inhibition, % at 30 µM; in the data active means inhibition above about 25%; further: inactives centre near -15
RBBP9 inh = human RBBP9 hydrolase inhibition; recombinant RBBP9, FP-Rh probe fluorescence polarization; hit rate 0.2% among 220,000; O75884; inhibition, % at 7.94 µM;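 active means inhibition above the campaign mean of all tested compounds plus 3 SD, cut at about 14% in these data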;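 further: plate controls were DMSO wells with RBBP9 for no effect and wells lacking RBBP9 protein for full effect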
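Test system: recombinant human RBBP9; Timing: 30 min then 45 min, 25 °C; Detection: fluorescence polarization; Control set: RBBP9 with DMSO as uninhibited control, no-protein wells as full inhibition; Compound dosing: one concentration, 7.94 µM nominal, 0.794% DMSO; Probe or stimulus: FP-Rh activity-based probe, 375 nM before mixing.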
m-calpain inh = calpain II (pig) inhibition; purified calpain II, fluorogenic peptide substrate, 30 min; inhibition, % at 16 µM; hit rate 0.37% among 220,000; AID 1236;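 active means inhibition above about 50%, limit read from the data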
Tb hexokinase = T. brucei hexokinase 1 inhibition | recombinant TbHK1, G6PDH-coupled NADH A340 | inhibition, % at 10 µM | AID 1430 | hit rate 0.11% among 220,000;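 active means inhibition of 50% or more in the single-dose primary screen; inactive means inhibition below 50%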
Active calls of the source: *; i = inactive; · = not tested or not shown; [ ] = another dose, or the depositor's remark. These rows are one share of the data; the hit share may differ from the screen's.

smiles	p47phox inh	EBV gp42 block	p97 ATPase inh	Furin inh	RBBP9 inh	m-calpain inh	Tb hexokinase
O=C(OCC(=O)N1CCOCC1)c1ccc(Cl)nc1	-1	-9	5	-14[20 µM]	-2	8	-1
CC(C)NCC(O)COc1cccc2ccccc12 (configuration not stated)	6	-11	·	-24	·	-19	-3
N#C/C(=C\c1cccc([N+](=O)[O-])c1)C(=O)NCc1ccc(Cl)cc1	-4	1	7	-19	-3	-57	1
O=C(c1ccco1)N(Cc1ccc([N+](=O)[O-])cc1)c1ccc(Br)cc1	2	6	0	-11	11	21	0
COc1ccccc1/C=N\Nc1cc(C)nc(-n2nc(C)cc2C)n1	-4	-7	0	-7	-3	-5	-38
CCOc1ccccc1Nc1nc(-c2sc(NC(=O)c3cccc(Cl)c3)nc2C)cs1	-9	-31	2	-7[20 µM]	3	-60	-10
COC(=O)c1ccc(OCC2c3cc(OC)c(OC)cc3CCN2C(=O)c2ccco2)cc1 (configuration not stated)	-16	9	10	-14	-1	-7	0
Cc1cccc(OCCCCCn2ccnc2)c1	-14	-8	-3	-9	-7	-11	38
CCC(Sc1ccc2nnc(-c3ccc(F)cc3)n2n1)C(=O)O (configuration not stated)	5	-43	6	-19	2	-275	1
COc1ccc(C(=O)c2ccc(N(C)C)cc2)c(OC)c1	2	-12	-1	16	-3	-4	-11
CCn1c(SCc2ccc([N+](=O)[O-])cc2)nnc1C(C)NC(=O)c1ccccc1Br (configuration not stated)	-15	-7	-5	-4[20 µM]	-4	22	2
Cn1cc([N+](=O)[O-])c(C(=O)Nc2ccc(Br)cn2)n1	3	-6	-1	-4[20 µM]	-10	15	1
Cc1cc(NC(=O)COC(=O)c2ccc(NS(=O)(=O)c3ccc(C)c(C)c3)cc2)no1	-11	0	-5	-6[20 µM]	-12	9	1
O=C(N/N=C/c1ccccn1)c1cc(-c2ccc(Br)cc2)nc2ccccc12	-17	3	-1	1	-7	-42	-51
COc1ccc(S(=O)(=O)N2CCCN(CC(=O)C(C)(C)C)CC2)cc1	-2	-16	2	-14	-7	-15	-4
COc1ccc(C(=O)c2oc3nc(C)cc(C)c3c2N)cc1	-8	1	0	-11	-8	-17	-14
COc1cc(N2C(=O)C=CC2=O)c(OC)cc1Cl	0	-12	4	-10	-4	-24	-12
COc1ccc(C(=O)Nc2cc3c(cc2OC)CCCC3)cc1Br	-12	7	3	-5[20 µM]	-10	-75	3
CCOC(=O)c1cc2c(=O)n3cccc(C)c3nc2n(Cc2ccco2)c1=NC(=O)c1cccnc1	-18	21	-1	-21[20 µM]	-7	i	-14
Cc1ccc(S(=O)(=O)N2CCC(=O)N2)cc1	-19	-4	3	-6	2	-9	4
COc1ccc(N2CCN(C(=O)c3ccc(OCc4c(C)noc4C)c(OC)c3)CC2)cc1	0	-9	-4	4[20 µM]	-10	5	-12
COc1ccc(/C=N/n2c(C)nnc2C)c(OC)c1OC	-4	-16	-4	-12	-8	-30	-5
O=[N+]([O-])c1ccc(C2CCCC/C2=N/OCc2ccccc2F)c([N+](=O)[O-])c1 (configuration not stated)	-7	5	1	-3[20 µM]	6	7	2
Cc1ccc(N2CCN(C(=O)c3ccccc3NC(=O)/C=C\C(=O)O)CC2)cc1	0	-8	3	-14[20 µM]	-7	-2	7
C/C(=N\NC(=O)Cc1ccccc1)c1cccs1	-18	-23	2	-19[20 µM]	-1	20	-4
Cc1ccc(-c2noc(/C=C/c3ccccc3)n2)cc1	-12	-10	-6	11[20 µM]	-6	-23	1
CCc1ccc(-n2c(=O)c3c(C)c(C(=O)N(C)C)sc3n(CC(=O)NCc3ccco3)c2=O)cc1	-13	-13	1	-14[20 µM]	-7	-21	-2
Cc1n[nH]c(=S)n(NC(=O)CC(=O)Nn2c(=S)[nH]nc(C)c2=O)c1=O	-3	-1	1	-9	-9	21	-17
CCOC(=O)C1=C(O)C(=O)N(c2ccc(S(N)(=O)=O)cc2)C1c1ccc(OC)cc1 (configuration not stated)	-4	6	5	-20	-2	-31	-20
CCNc1nc(Oc2ccc(=O)n(-c3ccccc3)n2)nc(N(C)C)n1	-28	-14	-1	-15[20 µM]	-8	28	-4
COc1cc(C(=O)Oc2ccc3c(c2)OCC3=O)cc(OC)c1OC	-26	-22	-4	0[20 µM]	-5	12	1
CC(=O)c1c(C)[nH]c(C(=O)OCC(=O)N(C)C)c1C	-6	-30	1	-6[20 µM]	6	4	4
Cc1cc(C)n(-c2ccc(Cl)c(C(=O)O)n2)n1	-4	-3	0	-17	-4	-7	-10
CCc1ccccc1NC(=O)C(C)n1nc([N+](=O)[O-])c(Br)c1C (configuration not stated)	-17	6	-3	1[20 µM]	2	17	6
Cc1cccc(CSc2nnc(NC(=O)c3ccco3)s2)c1	-13	-11	3	-19[20 µM]	-1	-15	-16
NC(=O)CN1C(=O)C2C3c4ccccc4C(c4ccccc43)C2C1=O (configuration not stated)	-4	-15	-6	-8[20 µM]	-13	10	0
CC(=O)Nc1ccnc(-c2cccnc2)n1	-20	-16	3	-27[20 µM]	-9	1	4
CC(C)OCC(O)CN1CCNCC1 (configuration not stated)	-3	-4	-1	-16[20 µM]	-5	10	-3
Cc1cc(=O)oc2cc(OCC(=O)Nc3nnc(CC(C)C)s3)ccc12	-107	-4	-1	-29[20 µM]	-9	-49	-2
O=C(NCCN1CCOCC1)c1ccc(Cl)cc1[N+](=O)[O-]	-18	-11	2	-11[20 µM]	0	16	-7
CCCCn1c(SCC(N)=O)nc2ccc(N3CCOCC3)cc2c1=O	-11	-16	-2	-19[20 µM]	-4	i	-13
CCOC(=O)Nc1sc(C(=O)N(C)C)c(C)c1C(=O)OCC	3	-2	1	-20[20 µM]	-4	10	-4
CCCCC[n+]1ccn(-c2nc3ccccc3nc2[N-]S(=O)(=O)c2ccc(C)cc2)c1	-15	14	-3	-5[20 µM]	2	-101	-2
CCCCCOCC(O)CCC(=O)NN (configuration not stated)	1	-2	-3	-11[20 µM]	-5	22	2
CCOc1ccc(/C=N/n2c(SC)nnc2-c2ccccc2)cc1OCC	-2	4	-4	-17	-2	-17	5
O=C(CCS(=O)(=O)c1ccc(Br)cc1)N1CCN(c2ccccc2F)CC1	10	7	-7	-17	-6	8	1
c1ccc(-c2ccc3c(c2)c2c4n3CCN=C4CCC2)cc1	7	-11	14	3[20 µM]	-6	16	-30
Cc1ccc(-n2nc(-c3ccc(N)cc3)cc2N)cc1	-2	-6	4	-27	-12	14	-1
CC(=O)Nc1ccc(NCN2C(=O)[C@@H]3[C@H]4CC[C@H](C4)[C@@H]3C2=O)cc1	-6	-3	5	-24	-4	2	0
COC(=O)c1cn(CC(=O)N2CCCCC2C)c2ccccc12 (configuration not stated)	-4	-2	0	-17[20 µM]	-3	-7	-2
O=C(Nc1ccccc1Cl)c1ccn[nH]1	2	-11	1	0[20 µM]	-2	11	9
O=S(=O)(NCc1cccnc1)c1ccc(Cl)s1	-13	-14	-2	-11[20 µM]	-10	15	1
O=C(O)C1CC=CCC1C(=O)NCc1cn2ccccc2n1 (configuration not stated)	-4	-3	3	-8	-5	-3	-2
N#Cc1ccc(CNc2cnccn2)cc1	-8	-17	-1	-19	-1	-372	8
COc1ccc(N2CCN(C(=O)CC3NC4CCCCC4NC3=O)CC2)cc1 (configuration not stated)	-6	-6	1	-9	-3	-8	-4
O=C(NCc1ccco1)c1ccccc1NS(=O)(=O)c1ccc(Br)s1	-23	-5	-4	-11[20 µM]	-5	-90	-1
COc1ccc(Br)cc1C(=O)Nc1cc(C)cc(C)c1	-9	2	2	-16[20 µM]	-4	2	2
CCCn1c(NC(=O)C2CCN(S(=O)(=O)c3cccs3)CC2)nc2ccccc21	-25	-13	-6	-26	-8	24	13
CCOc1c2ccc(C(=O)NCCCCc3ccccc3)cc2nn1C	9	-18	-6	-14[20 µM]	-13	-499	0
C=CCOC(=O)C1=C(C)NC(SCC(=O)Nc2nccs2)=C(C#N)C1c1ccc(Cl)cc1 (configuration not stated)	-13	11	2	-8[20 µM]	-8	36	1

(next part)
smiles	p47phox inh	EBV gp42 block	p97 ATPase inh	Furin inh	RBBP9 inh	m-calpain inh	Tb hexokinase
CCOC(=O)/C=C1\SCC(=O)N1CC(=O)Nc1ccc2c(c1)CCC2	-14	-14	4	-11	-6	13	-6
CC(C)c1cc(Nc2cccc(O)c2)cc(C(C)C)c1O	·	·	8	-24	16*	·	-3
COc1nnc(OC)c2ccccc12	0	-2	-5	-1	0	16	7
CC(C)CCNC(=O)Cc1ccccc1[N+](=O)[O-]	-17	-8	0	-26[20 µM]	-10	-21	-2
O=C(CSCc1ccc(F)cc1)N1CCN(c2ccccc2)CC1	-10	-8	-4	-27[20 µM]	-7	-4	3
CC1(C)CN(c2ccccc2)N(C(=O)c2ccc(F)cc2)C1=O	-1	6	-5	-15[20 µM]	-8	11	-1
C=C(C)c1cccc(C(C)(C)NC(=O)N2CCN(C/C=C/c3ccccc3)CC2)c1	-6	-1	-2	-10[20 µM]	-2	0	-8
O=C(c1cc2nc(-c3ccco3)cc(C(F)(F)F)n2n1)N1CCc2ccccc2C1	-7	-8	3	-23	-10	-136	2
Cc1ccccc1Nc1nnc(SCC(=O)NCc2ccco2)s1	-9	11	-5	-6	-4	-114	4
Cc1ccc(NC(=S)NC(=O)c2ccc(-c3ccc(Cl)cc3)o2)c(O)c1	-27	-10	4	-21	-6	3	-15
CS(=O)(=O)N1CCN(c2ccc([N+](=O)[O-])c(N3CCOCC3)c2)CC1	-9	-12	1	-4[20 µM]	-7	27	-3
Cc1nn(-c2nc3ccccc3[nH]2)c(N)c1-c1ccccc1	2	-9	2	-14[20 µM]	-1	-14	-1
O=C(NN=C1C2CC3CC(C2)CC1C3)c1cc(Cl)ccc1O	-12	12	1	-18[20 µM]	6	-241	-7
CNC(=S)N1N=C(c2ccc(OC)cc2)CC1c1ccc(N(C)C)cc1 (configuration not stated)	-9	-26	6	-3	-5	7	-28
O=C(Cc1ccccc1)N[C@@H](Cc1ccccc1)c1nc2ccccc2[nH]1	-4	-27	6	-5[20 µM]	-1	5	3
Cc1nnc(C)n1/N=C/c1cccs1	-4	-19	0	-21	-6	-12	-8
Cc1ccc(NC(=O)Cc2ncc(C(F)(F)F)cc2Cl)cc1Cl	-7	10	9	-12	0	18	2
O=C(Oc1ccc(Cl)c2cccnc12)c1ccco1	2	1	1	-18[20 µM]	1	-18	-4
N#C/C(C(=O)Oc1ccccc1)=C1/Nc2ccccc2-c2ccccc21	-14	-13	-2	-3[20 µM]	2	-106	-1
COC(=O)c1ccc(NC(C)=O)o1	-1	-16	3	3[20 µM]	-5	-20	-3
Cn1c(C(=O)O)c(CC(=O)NCC2COc3ccccc3O2)c2ccccc21 (configuration not stated)	-5	5	5	-32	0	10	7
Cc1ccc(S(=O)(=O)N[C@H](C(=O)N2CCC(C(=O)N3CCC[C@H]3C(=O)O)CC2)C(C)C)cc1	3	-11	0	-15	-4	6	9
COc1ccc(C(=O)Nc2ccc(Cl)cc2C(=O)NCCN2CCOCC2)cc1	-11	-6	-3	-29[20 µM]	-9	-11	-10

Single records, as listed above. Screens in order: p47phox inh, EBV gp42 block, p97 ATPase inh, Furin inh, RBBP9 inh, m-calpain inh, Tb hexokinase
O=C(Oc1ccc(Cl)c2cccnc12)c1ccco1 is entered as 2, 1, 1, -18[20 µM], 1, -18, -4
O=C(c1cc2nc(-c3ccco3)cc(C(F)(F)F)n2n1)N1CCc2ccccc2C1 is entered as -7, -8, 3, -23, -10, -136, 2
Cc1ccc(NC(=O)Cc2ncc(C(F)(F)F)cc2Cl)cc1Cl is entered as -7, 10, 9, -12, 0, 18, 2
Cc1ccc(NC(=S)NC(=O)c2ccc(-c3ccc(Cl)cc3)o2)c(O)c1 is entered as -27, -10, 4, -21, -6, 3, -15
COc1ccc(C(=O)Nc2ccc(Cl)cc2C(=O)NCCN2CCOCC2)cc1 is entered as -11, -6, -3, -29[20 µM], -9, -11, -10
